# Screening data from PubChem.
# Sa helicase inh = inhibitors of S. aureus replicative helicase, primary screen, biochemical, fluorescence unwinding readout; replicative DNA helicase (DnaC/DnaB), Staphylococcus aureus; purified S. aureus helicase, fluorescence unwinding assay; about half of the hits fall short of the stated cut; inhibition, %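 (tested at about 80 µM)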; 0.05% of 120,000 active;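 active = both duplicates at 50% or more, or one of them with a favoured structure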;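 also: 0% = mean of negative control wells and 100% = mean of positive control wells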
# MgrA-DNA mod = S. aureus MgrA activity modulators, primary screen, biochemical, S. aureus Newman, fluorescence polarization; MgrA-DNA binding; inhibition, %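 (about 10 µg/mL by stock and volumes)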; 0.13% of 84,000 active;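 active = above 50% in either of two replicates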;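 also: 0% = protein plus DNA without compound and 100% = DNA alone without protein; higher means less MgrA bound to DNA so lower polarization; one replicate is shown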
# An asterisk follows results filed as active; · = not tested or not shown. Some of the compounds tested, so the mix of outcomes need not match the whole.
SMILES,Sa helicase inh,MgrA-DNA mod
C#CC(C)(C)NC(=O)c1snnc1C,-20,·
COc1ccc(-c2cn3c4ccccc4nc3n2CCO)cc1,-17,-3.7
O=C(CSc1nnc(Cc2ccccc2)o1)N1CCNC1=O,22,·
Nc1ccc(N=Cc2ccc3c(c2)OCCO3)cc1,-26,0.9
c1cc2c(cc1CN1CCN(C3CCCCCC3)CC1)OCO2,-2,-6.2
O=C(Cn1cnnn1)N(CCc1ccccc1)c1nc(-c2ccccc2)cs1,15,·
O=C(Cn1[nH]c(=O)c2ccccc2c1=O)NCC(c1ccco1)N1CCCC1 (stereo not drawn),6,·
O=C(NCCCN1CCN(c2cccc(Cl)c2)CC1)c1ccc(N2CCCS2(=O)=O)cc1,10,·
O=C(CCn1cccc1)NCC1COc2ccccc2O1 (stereo not drawn),14,5.4
N#Cc1c(-c2ccccc2)nc(-c2ccccc2)[nH]c1=O,·,0.1

# Next section (2 carried over from the part before).
SMILES,Sa helicase inh,MgrA-DNA mod
O=C(CCn1cccc1)NCC1COc2ccccc2O1 (stereo not drawn),14,5.4
N#Cc1c(-c2ccccc2)nc(-c2ccccc2)[nH]c1=O,·,0.1
COc1ccccc1CC1(C)NC(=O)NC1=O (stereo not drawn),-7,·
COCCOC(=O)C1=C(N)OC2=C(C(=O)CC(C)(C)C2)C1c1cccc([N+](=O)[O-])c1 (stereo not drawn),·,3.5
O=C(Oc1ccc(-c2nnco2)cc1)c1ccc2ccccc2c1,6,·
COc1ccc2oc(=O)c(C(=O)NCc3ccco3)cc2c1,12,7.8
O=C(CSc1ncn[nH]1)Nc1cc(Cl)ccc1Cl,-23,-0.1
CCC(C(=O)NCc1ccccc1)N(C(=O)Cn1nnc(-c2cccs2)n1)c1ccccc1OC (stereo not drawn),2,4.0
COC(=O)c1cc(OC)c(OC)cc1NC(=O)c1ccccc1Br,·,4.4
CCc1c(C)sc(NC(=O)c2cc(-c3cccs3)on2)c1C#N,34,·
O=C(CSCc1ccccc1)N1CCN(c2ccccc2)CC1,6,·
Cc1cc(C)n(C(=O)C2CCCN2S(=O)(=O)c2ccc(Cl)cc2)n1 (stereo not drawn),5,·
CCOc1ccc(-c2nc(CSCC(=O)N3CCc4ccccc43)c(C)o2)cc1,12,·
Cc1nnc(SCC2=NN(c3nc4ccccc4s3)C(=O)C2)s1,-21,·
CCc1ccc(NC(=O)n2ncc3c(C)cccc32)cc1,2,0.0
Cc1ccc(S(=O)c2snnc2-c2ccc(Cl)cc2)cc1 (stereo not drawn),·,-0.2
O=S(=O)(NCCc1ccccn1)c1cc(S(=O)(=O)c2ccccc2)cs1,·,-1.7
CCOC(=O)c1sc(C)nc1C1CCN(C(=O)OCC)CC1,8,·
CCCc1c(C(=O)O)cnn1-c1cc(Cl)cc(Cl)c1,·,0.0
CC(=O)c1nnn(-c2ccc(F)cc2F)c1C,·,-2.9
Clc1ccc(Cn2cc(/C=N/n3cnnc3)c3ccccc32)c(Cl)c1,7,0.7
O=C(O)Cc1ccc(NCc2ccc(Br)cc2)cc1,-5,0.3
COc1cc(C(=O)OCC(=O)Nc2ccc(C)cc2)cc(OC)c1OC,-1,1.4
Cn1cccc1C1CCCN1CC(=O)NC(=O)NCc1ccccc1 (stereo not drawn),31,·
Cc1cc(NC(=O)/C=C/c2ccc(F)cc2)no1,8,0.5
Cc1cc(C(C)(C)C)ccc1OCC(O)CNC1CCC(O)CC1 (stereo not drawn),12,·
Cc1cc(C(=O)COC(=O)c2ccc(-n3cnnn3)cc2)c(C)n1-c1cccc(F)c1,13,·
COc1ccc(COC(=O)C2=C(C)NC(=O)NC2c2ccccc2OC(C)C)cc1 (stereo not drawn),·,-1.3
COC(=O)c1cc2cccc(OC)c2cc1OC,22,0.9
CC(=O)Nc1ccc(NC(=O)CSc2nccc(=O)[nH]2)cc1,4,1.4
CCOC(=O)c1oc2ccccc2c1CN1c2cccc3cccc(c23)S1(=O)=O,17,·
CCOC(=O)c1c(C)nc2cc(C)ccn12,16,·
CCS(=O)(=O)N1CCN=C1SCc1cccc2ccccc12,8,·
NC(CN1CCOCC1)c1ccccc1 (stereo not drawn),7,-1.8
O=S(=O)(Nc1nccs1)c1ccccc1,-59,·
CCC(=O)c1cc2ccccc2oc1=O,-16,0.3
O=S1(=O)CCCCN1c1ccc(S(=O)(=O)N2CCCCC2)cc1,-8,·
CCC1Oc2ccc(C)cc2N(CC(=O)NC(C)CCc2ccccc2)C1=O (stereo not drawn),-1,1.1
O=C(COc1ccc(Br)cc1C(=O)Nc1ccc(Cl)cc1)NC1CC1,10,-0.8
CCCSc1nnc(NC(=O)C23CC4CC(CC(C4)C2)C3)s1,13,·
S=c1nc(-c2ccccc2)n(-c2ccccc2)[nH]1,·,0.0
Cc1cc(N)c2ccccc2[n+]1CCCCCCCCCC[n+]1c(C)cc(N)c2ccccc21,·,55*
O=C(Cc1nncn1-c1ccccc1)c1ccc(O)cc1O,-132,·
C=CC(C)(O)CC[C@]1(C)[C@H]2CC(=O)C=C(C)[C@]2(C)C[C@@H](O)[C@@H]1C (stereo partly drawn),-21,·
O=C(OCCN1C(=O)c2ccccc2C1=O)c1ccc(Cl)cc1,17,·
COCc1cc(Cl)nc(-c2ccccc2)n1,·,-1.7
CSCC(=O)Nc1ccc(F)c(Cl)c1,·,-1.3
CCCCc1nnc(SCC(=O)Nc2ccccc2)n1CC,18,1.6
CC(C)(C)c1cccc(C2(O)C(=O)c3ccccc3C2=O)c1O,·,4.5
O=C(N=S1CCN(c2ncc(C(F)(F)F)cc2Cl)CC1)c1ccccc1,·,-0.1
CC1CCN(C(=O)CN(CCc2ccccc2)S(C)(=O)=O)CC1,15,-0.7
COc1ccc(/C=C/C(=O)N2CCCC2)cc1OC,0,1.2

# Other compounds follow.
SMILES,Sa helicase inh,MgrA-DNA mod
COc1ccccc1NC(=S)NCc1cccnc1,·,0.9
CC/C(O)=c1\ccc2cccc3nc(CC)nc1c23,-46,16
CC(=O)NCCC(=O)Nc1ccc(-c2cn3ccsc3n2)cc1,7,·
CC(C)NC(=O)c1n[nH]c(=O)c2ccccc12,10,·
COc1ccc(C(=O)Nc2cccc(NC(C)=O)c2)c(OC)c1,6,0.7
O=C(Cc1cccs1)NCc1cccc(Br)c1,3,·
O=C(CSc1nnc(-c2cccnc2)o1)c1ccc(Br)cc1,·,-2.2
Cc1csc(NC2=NCCCCC2)n1,-15,-2.9
CCOC(CNCc1ccco1)OCC,-5,·
O=C(CSCCN1C(=O)c2ccccc2C1=O)NCc1cccs1,-5,·
Fc1ccc(Nc2nc3ccccc3s2)cc1,14,1.2
O=C(COC(=O)c1n[nH]c(=O)c2ccccc12)NC1C2CC3CC(C2)CC1C3 (stereo not drawn),2,·
COC(=O)c1ccc(CO/N=C(\N)c2c(-c3c(Cl)cccc3Cl)noc2C)o1,23,·
CCN(CC)c1nc(-c2ccccc2O)nc2ccccc12,-3,·
Clc1ccnc(-c2ccccc2)n1,·,-1.5
CCOc1ccc(-n2c(O)c(C3=c4ccccc4=NC3=O)sc2=O)cc1,-7,3.0
CCOC(=O)c1ccc(N=Cc2ccc3ccccc3c2)cc1,6,-3.5
COCCn1c(=NC(C)=O)sc2ccccc21,15,·
O=S(=O)(NC(=NCCc1ccccc1)Nc1cccc(Cl)c1)c1ccccc1,·,1.2
O=C(COC(=O)C1CCCN1S(=O)(=O)c1cccc2nsnc12)c1ccco1 (stereo not drawn),-13,·
Cc1cc(SCC(=O)Nc2cccc(C#N)c2)nc2ccccc12,-4,·
CC(C)CCNS(=O)(=O)c1ccccc1,-12,·
CNC(=O)CSc1nnc(-c2ccccc2)n1C,1,0.8
Cc1ccc(S(=O)(=O)c2cn(Cc3cccc(Cl)c3)c3cc4c(cc3c2=O)OCO4)cc1,10,4.3
O=C(CCCCCN1C(=O)/C(=C/c2ccc(Br)cc2)SC1=S)Nc1nccs1,·,-2.3
Cc1nn(-c2ccccc2)nc1-c1nnc(-c2ccccc2)o1,·,0.5
CCOC(=O)c1ccc(Nc2nc3nonc3nc2N2CCC(Cc3ccccc3)CC2)cc1,·,-2.0
O=C(NCc1ccc(-c2cccs2)s1)c1ccc(Cl)cc1,·,1.0
CCOc1ccccc1-n1nnnc1SCC(=O)c1ccc[nH]1,-8,·
O=C(Nc1cc(OCC(F)(F)F)cc(OCC(F)(F)C(F)F)c1)c1cccnc1,15,-2.7
CC(C)(C)OC(=O)Nc1ccc2c(c1)OCO2,-20,·
COc1ccc(C(=O)CSc2nc(-c3cccc(C)c3)ns2)cc1,5,1.1
O=C(Oc1cc(=O)n(-c2ccccc2)c2ccccc12)c1ccccc1,·,1.0
CN(C)c1ccc(NC(=O)CC2CCCCC2)cc1,12,-1.8
COc1cccc(C(=O)N2CCN(C(c3ccccc3)c3ccccc3)CC2)c1OC,1,0.2
O=S1(=O)N=CN(Cc2ccccc2)c2ccccc21,22,·
CCOC(=O)c1sc2nc(C3CC3)cc(-c3ccc(OC)cc3)c2c1N,20,·
Cc1cc(C(=O)Nn2cnnc2)cs1,8,4.5
CC(C)Cc1cc(C(=O)Nc2cccc(O)c2)no1,-23,·
COc1ccc(S(=O)(=O)N2Cc3ccccc3CC2C(=O)NC(C)(C)C)cc1 (stereo not drawn),-30,·
CC(C)(C)c1ccc(C(=O)N2CCN(C(=O)C3CCCCC3)CC2)cc1,-22,·
O=C(CC1Nc2ccccc2NC1=O)Nc1ccccc1Cl (stereo not drawn),-7,2.3
Cc1ccc(-c2nn(-c3ccccc3)c3[nH]c(C)cc(=O)c23)cc1,8,·
NC(=O)CSc1cn(Cc2ccccc2)c2ccccc12,-17,·
CSc1nc(N)nc(C(C)(C)C)n1,·,0.7
CC(C)CC(NC(=O)C1CCC(C)CC1)C(=O)Nc1ccc2c(c1)OCCO2 (stereo not drawn),28,·
Cc1[nH]c(=O)n(C(C)(C)C)c(=O)c1Br,17,·
CCc1ccc(OCC(=O)N2CC(C)OC(C)C2)cc1 (stereo not drawn),-13,-1.8
Cc1oc2c(c1C(=O)N1CCC(C)CC1)C(=O)c1ccccc1C2=O,11,-2.0
Cn1c(=O)c2c(-c3ccc(C(C)(C)C)cc3)n(-c3cc(N)c(Cl)cc3Cl)cc2n(C)c1=O,16,-0.4

# Reprinted from the part before: three compounds, then new ones.
SMILES,Sa helicase inh,MgrA-DNA mod
CCc1ccc(OCC(=O)N2CC(C)OC(C)C2)cc1 (stereo not drawn),-13,-1.8
Cc1oc2c(c1C(=O)N1CCC(C)CC1)C(=O)c1ccccc1C2=O,11,-2.0
Cn1c(=O)c2c(-c3ccc(C(C)(C)C)cc3)n(-c3cc(N)c(Cl)cc3Cl)cc2n(C)c1=O,16,-0.4
COCCn1c(SCC(=O)N2CCCCC2C)nc2sc(C)c(C)c2c1=O (stereo not drawn),-4,-0.6
O=S(=O)(NCc1ccccc1)c1cccs1,5,3.6
O=S(=O)(c1ccc(F)cc1)N(Cc1ccc2c(c1)OCO2)c1ccc(F)cc1,·,0.4
Cc1cc(C)nc(SCC(=O)OCC(=O)Nc2ccc3c(c2)CCC3)n1,2,·
O=C(Nc1cccc(Br)c1)N1CCCC(CN2CCc3ccccc3C2)C1 (stereo not drawn),10,1.6
COCCn1ccc2nc(C)c(C(=O)NCCC(C)C)cc2c1=O,1,·
Cn1c(CCNC(=O)Cc2ccccc2)nc2ccccc21,1,·
O=S1(=O)C=CC2ON=C(c3c(Cl)cccc3Cl)C21 (stereo not drawn),11,-0.7
O=S(=O)(NCc1ccccc1)c1cccc(Cl)c1,14,·
COc1cc(NC(=O)C(Cc2ccccc2)n2cccc2)cc(OC)c1 (stereo not drawn),-6,·
N#CCSc1nnc(-c2ccccc2)n1-c1ccccc1,14,2.7
Cc1cccc(-c2nnc(C3CCNCC3)o2)c1,-7,8.2
C=CCNc1nc(C(=O)OCc2ccc(C#N)cc2)cs1,7,·
CC(C)(C)c1ccc(C(=O)Nc2c3c(nn2-c2ccc(Cl)cc2)CSC3)cc1,9,1.5
O=C(O)CC(c1ccc(F)cc1)c1ccco1 (stereo not drawn),5,-0.9
COc1ccc(OCC(O)CNC2CCN(c3ncnc4scc(-c5ccccc5)c34)CC2)cc1 (stereo not drawn),·,1.2
COc1ccc(CNC2=CC(=O)CC(C)(C)C2)cc1,24,·
Cc1cc(C)cc(-n2c(C)cc(/C=C(\C#N)C(=O)Nc3ccccc3)c2C)c1,-6,1.1
CCC(C)c1ccc(NC(N)=S)cc1 (stereo not drawn),-12,·
O=C(Nc1c2c(nn1-c1ccccc1)CSC2)C1CCCCC1,-12,·
CCCc1c(O)ccc2c(=O)cc(C(=O)O)oc12,·,-1.0
Cc1ccc(C2/C(=C(\O)c3ccccc3)C(=O)C(=O)N2c2ccccn2)cc1 (stereo not drawn),-20,-0.1
CCSC(SCC)[C@H](O)[C@@H](O)[C@@H](O)CO,·,-1.5
CC(C)C(=O)NS(=O)(=O)c1ccc(NC(=O)c2ccco2)cc1,18,-39
Clc1cc(Cl)c(OCCCCn2cncn2)c(Cl)c1,-4,-0.6
C=CCn1c(=O)n(CC=C)c(=O)n(Cc2ccc(Cl)cc2)c1=O,-14,·
O=C1N=c2ccccc2=C1c1sc(NS(=O)(=O)c2ccccc2)nc1O,25,18
CC1Cc2ccccc2N1C(=S)NC(=O)c1ccco1 (stereo not drawn),-5,·
CC1CN(CCC(C)c2ccccc2)CC(C)O1 (stereo not drawn),7,-2.1
N#CCCN=Nc1c(O)n(CO)c2ccccc12,-15,·
N#CCC(=O)NCC1CCCO1 (stereo not drawn),8,0.3
Cc1cc2c(cc1Br)NC(=O)/C2=N\N1C(=O)c2ccccc2C1=O,-8,·

# Given as tab-separated lines: part of the list above.
Molecule	Sa helicase inh	MgrA-DNA mod
CCSC(SCC)[C@H](O)[C@@H](O)[C@@H](O)CO	·	-1.5
CC(C)C(=O)NS(=O)(=O)c1ccc(NC(=O)c2ccco2)cc1	18	-39
Clc1cc(Cl)c(OCCCCn2cncn2)c(Cl)c1	-4	-0.6
C=CCn1c(=O)n(CC=C)c(=O)n(Cc2ccc(Cl)cc2)c1=O	-14	·
O=C1N=c2ccccc2=C1c1sc(NS(=O)(=O)c2ccccc2)nc1O	25	18
